Ecoli growth: blocks Escherichia coli growth; AID 1053175; 0.21% of 330,000 active; OD600 absorbance (no concentration beside the values); OD600, 23 h; hits give low values;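 active = OD600 absorbance below the run mean of sample wells minus 3.6 SD, in any replicate, cut at about 0.56 in these data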;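 also: stock transfer was 300 nL into about 60 µL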
Beta2AR agonist: activates human beta-2 adrenergic receptor causing internalization. response, % (test concentration not listed). P07550. Am2.2-beta2AR cells, FAP receptor internalization, flow cytometry; reference of the scale not given here. 0.43% of 340,000 active;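 active = response above a set limit, near 3 SD of response in nonfluorescent compounds, cut at about 42% in these data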;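 also: stock transfer was 100 nL into about 11 µL; a reference agonist was the positive control; negative values mostly stem from fluorescent compounds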
Target sequence (P07550 whole entry, looked up): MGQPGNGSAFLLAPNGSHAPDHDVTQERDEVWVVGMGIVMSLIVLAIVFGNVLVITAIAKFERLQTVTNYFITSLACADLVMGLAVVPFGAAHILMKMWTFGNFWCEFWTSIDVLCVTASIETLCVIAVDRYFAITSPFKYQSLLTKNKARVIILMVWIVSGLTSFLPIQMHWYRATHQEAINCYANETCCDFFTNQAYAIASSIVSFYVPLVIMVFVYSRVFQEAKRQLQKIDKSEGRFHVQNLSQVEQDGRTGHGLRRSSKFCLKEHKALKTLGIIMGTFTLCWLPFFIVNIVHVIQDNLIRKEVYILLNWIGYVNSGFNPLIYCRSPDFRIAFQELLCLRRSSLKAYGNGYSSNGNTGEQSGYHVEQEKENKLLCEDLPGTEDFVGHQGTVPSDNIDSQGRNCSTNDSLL
ALR inh: human ALR oxidase inhibition via reduced H2O2; P55789; purified ALR, DTT oxidation, H2O2 HRP-luminol luminescence; inhibition, % (concentration not given with the values); 3.8% of 290,000 active;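 active = mean and each replicate at 75% or more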;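 also: stock transfer was 7.5 nL into about 7.5 µL; 0% = neutral wells and 100% = wells with inactivated enzyme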
Target sequence (P55789 whole entry, looked up): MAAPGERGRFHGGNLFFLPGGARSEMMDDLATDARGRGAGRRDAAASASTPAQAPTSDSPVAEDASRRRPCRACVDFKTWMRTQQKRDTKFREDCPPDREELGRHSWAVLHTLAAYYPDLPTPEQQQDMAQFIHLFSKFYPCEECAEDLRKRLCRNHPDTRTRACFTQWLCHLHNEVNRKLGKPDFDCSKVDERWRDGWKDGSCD
UCH37 inh: blocks the human deubiquitinase UCH37; inhibition, % (test concentration not listed); purified proteasome/UCH37, Ub-AMC cleavage fluorescence; 0.33% of 330,000 active; AID 588478;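 active = mean of two replicates above 20%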;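 also: 0% = compound-free wells with enzyme and 100% = wells lacking proteasome; stock transfer was 100 nL into about 20 µL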
Target sequence (Q9Y5K5 whole entry, looked up): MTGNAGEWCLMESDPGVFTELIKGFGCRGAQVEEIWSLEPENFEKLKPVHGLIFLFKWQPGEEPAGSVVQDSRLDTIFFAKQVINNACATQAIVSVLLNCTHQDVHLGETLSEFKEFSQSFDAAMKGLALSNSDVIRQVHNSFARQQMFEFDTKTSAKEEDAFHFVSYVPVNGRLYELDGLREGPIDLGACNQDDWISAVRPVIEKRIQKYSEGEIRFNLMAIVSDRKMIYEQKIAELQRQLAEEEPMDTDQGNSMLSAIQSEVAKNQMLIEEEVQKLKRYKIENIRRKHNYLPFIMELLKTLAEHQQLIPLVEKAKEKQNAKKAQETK
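Signal – fluorescence, ex 355 nm, em 460 nm · System – Proteasome-bound UCH37 · Input – 0.15 nM proteasome as dispensed · Timing – 30 min preincubation with enzyme, 25 min cleavage at room temperature · Read-out basis – percent inhibition of cleavage signal versus uninhibited and no-proteasome wells · Medium – Tris-HCl pH 7.4 with ATP-MgCl2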
Ecoli rRNA inh: inhibitors of bacterial rRNA selective over humanized ribosomes; 1.6% of 350,000 active; GFP signal change (wild-type ribosome), % (concentration not given with the values); E. coli WT GFP vs humanized-ribosome RFP mutants, fluorescence, 24 h; hits give low values; DMSO median 0, no signal -100; AID 720706;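 active = significant combined selectivity score with lowered wild-type GFP, culture density cut under 30%, mutant RFP and density less affected; inactive = any of these conditions unmet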; also: one replicate is shown; some compounds called inactive have numbers as strong as hits
FGF22 binding: shifts melting point of recombinant human FGF22. AID 651658. Q9HCT0. recombinant FGF22 thermal shift, SYPRO orange fluorescence; percent of sucrose octasulfate shift, DMSO zero. 1.5% of 340,000 active. calls only at 9.99 µM;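 active = melting point raised past a set limit in the mean and every replicate; three in four hits are not shown here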
HNF4A DNA FP: change in binding of human HNF4 alpha to DNA. 0.3% of 360,000 active. activity change, % at 10 µM. HNF4a-FITC DNA binding, fluorescence polarization, 1 h. P41235; in the data active = activity change above about 30%, passing the limit was not always enough;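 also: controls were the assay level and a saturating level of protein; the project sought stronger binding though the title names inhibitors; some compounds called inactive have numbers as strong as hits; positive values seem to mean higher polarization but the record does not say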
Ecoli rRNA inh OD600: recorded beside Ecoli rRNA inh, whose call it bears; OD600 change, %; measured here: OD600 growth;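 optical density of the mix in the first replicate; 0 = DMSO median and -100 = no signal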
Ecoli rRNA inh RFP: recorded beside Ecoli rRNA inh, whose call it bears; RFP signal change, %; measured here: RFP humanized mutant strains;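 first replicate; 0 = DMSO median and -100 = no signal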
Numbers without * were called inactive. Some of the compounds tested; rates above refer to the full screens.

For CC(C)C(N)c1csc(NC(=O)Nc2ccccc2C(C)(C)C)n1 (stereo unspecified) the results were Ecoli rRNA inh 2.1, FGF22 binding inactive, HNF4A DNA FP 1.9, Ecoli rRNA inh OD600 -8.1 and Ecoli rRNA inh RFP 7.1.
For CCN(Cc1ccccc1)C(=O)Cn1cc(S(=O)(=O)NC)c(S(=O)(=O)NC)c1 the results were Ecoli growth 0.672, Beta2AR agonist -1.0, ALR inh -9.6, UCH37 inh 1.1, Ecoli rRNA inh -1.6, FGF22 binding inactive, HNF4A DNA FP 2.1, Ecoli rRNA inh OD600 3.7 and Ecoli rRNA inh RFP 2.3.
Cc1ccc(-n2c(Cc3ccccc3)n[nH]c2=S)cc1 was read as Ecoli growth 0.713, Beta2AR agonist -0.4, ALR inh 91.5*, UCH37 inh 6.5 and HNF4A DNA FP 3.8.
COc1ccccc1NC(=O)COC(=O)c1ccccn1 was read as Ecoli growth 0.63, Beta2AR agonist -7.1, ALR inh -0.1, UCH37 inh 5.0, Ecoli rRNA inh 0.6, HNF4A DNA FP 1.0, Ecoli rRNA inh OD600 -2.3 and Ecoli rRNA inh RFP -3.1.
O=C(Nc1ccc(Oc2ccccc2)cc1)c1csc([C@@H]2C[C@H](O)[C@@H](CO)O2)n1 was read as Ecoli rRNA inh -2.2, FGF22 binding inactive, HNF4A DNA FP 1.2, Ecoli rRNA inh OD600 -15.5 and Ecoli rRNA inh RFP -2.8.
O=C(Nc1cccc(Cl)c1Cl)c1csc([C@H]2C[C@H](O)[C@@H](CO)O2)n1 was read as Ecoli rRNA inh -15.8, FGF22 binding inactive, HNF4A DNA FP -0.6, Ecoli rRNA inh OD600 -21.0 and Ecoli rRNA inh RFP 2.1.
`O=C(/C=C/Nc1ccccc1F)c1ccc(Br)cc1` gave Ecoli growth 0.637, Beta2AR agonist -2.7, ALR inh 3.2, UCH37 inh -0.1 and HNF4A DNA FP -1.0.
For COc1ccc(OC)c(S(=O)(=O)Nc2cc(Cl)cc(Cl)c2)c1 the results were Ecoli growth 0.7, Beta2AR agonist -15.4, ALR inh 0.2, UCH37 inh 1.6 and HNF4A DNA FP -1.1.
`CCOc1ccccc1NC(=O)C(Sc1ccccc1)c1ccccc1` (stereo unspecified) gave Ecoli growth 0.744, Beta2AR agonist -0.8, ALR inh -5.5, UCH37 inh 4.7 and HNF4A DNA FP 0.2.
For CCc1ccc(C(=O)OCC(=O)N2CCCCCC2)cc1 the results were Ecoli growth 0.662, Beta2AR agonist 4.8, ALR inh -5.3, UCH37 inh 4.0, FGF22 binding inactive and HNF4A DNA FP -3.1.
Screening COc1ccc(S(=O)(=O)N2CCN(C(=O)Nc3ccccc3OC)CC2)cc1 returned Ecoli growth 0.676, Beta2AR agonist 3.2, ALR inh -18.2, UCH37 inh 1.3, Ecoli rRNA inh 2.5, FGF22 binding inactive, HNF4A DNA FP -3.2, Ecoli rRNA inh OD600 -1.8 and Ecoli rRNA inh RFP -1.0.
`Cc1ccc(C2C(C#N)=C3N=C(N)c4ccccc4N3C3=C2C(=O)CCC3)cc1` (stereo unspecified) gave Ecoli growth 0.688, Beta2AR agonist 2.9, ALR inh -5.5, UCH37 inh 2.1, Ecoli rRNA inh -31.1, FGF22 binding inactive, HNF4A DNA FP 4.1, Ecoli rRNA inh OD600 -12.2 and Ecoli rRNA inh RFP 29.2.

A section from the list above, as a working copy:
O=C(Nc1ccc(Oc2ccccc2)cc1)c1csc([C@@H]2C[C@H](O)[C@@H](CO)O2)n1 was read as Ecoli rRNA inh -2.2, FGF22 binding inactive, HNF4A DNA FP 1.2, Ecoli rRNA inh OD600 -15.5 and Ecoli rRNA inh RFP -2.8.
O=C(Nc1cccc(Cl)c1Cl)c1csc([C@H]2C[C@H](O)[C@@H](CO)O2)n1 was read as Ecoli rRNA inh -15.8, FGF22 binding inactive, HNF4A DNA FP -0.6, Ecoli rRNA inh OD600 -21.0 and Ecoli rRNA inh RFP 2.1.

Reprinted at random: two compounds from above
COc1ccccc1NC(=O)COC(=O)c1ccccn1 was read as Ecoli growth 0.63, Beta2AR agonist -7.1, ALR inh -0.1, UCH37 inh 5.0, Ecoli rRNA inh 0.6, HNF4A DNA FP 1.0, Ecoli rRNA inh OD600 -2.3 and Ecoli rRNA inh RFP -3.1.
O=C(Nc1ccc(Oc2ccccc2)cc1)c1csc([C@@H]2C[C@H](O)[C@@H](CO)O2)n1 was read as Ecoli rRNA inh -2.2, FGF22 binding inactive, HNF4A DNA FP 1.2, Ecoli rRNA inh OD600 -15.5 and Ecoli rRNA inh RFP -2.8.

Further results
Screening CCn1c(SCc2nc3ccccc3c(=O)[nH]2)nnc1C(C)NC(=O)c1ccccc1 (stereo unspecified) returned Ecoli growth 0.681, Beta2AR agonist 0.6, ALR inh -13.0, UCH37 inh 2.3, Ecoli rRNA inh 2.6, FGF22 binding inactive, HNF4A DNA FP 5.5, Ecoli rRNA inh OD600 0.3 and Ecoli rRNA inh RFP -0.4.
`CN(c1ccccc1)S(=O)(=O)c1cccc(NC(=O)Cn2cnc3ccccc3c2=O)c1` gave Ecoli growth 0.823, Beta2AR agonist -0.4, UCH37 inh 4.2 and HNF4A DNA FP 0.3.
For CN1CCN(C(=O)c2cc3nc(-c4ccc(F)cc4)cc(C(F)(F)F)n3n2)CC1 the results were Ecoli growth 0.714, Beta2AR agonist -10.4, ALR inh -5.2, UCH37 inh -5.6 and HNF4A DNA FP -2.4.
Screening O=C(Nc1ccncc1)c1ccc([N+](=O)[O-])cc1Cl returned Ecoli growth 0.669, Beta2AR agonist -0.5, ALR inh -7.4, UCH37 inh 3.2, Ecoli rRNA inh 6.3, FGF22 binding inactive, HNF4A DNA FP 1.5, Ecoli rRNA inh OD600 8.6 and Ecoli rRNA inh RFP -7.1.
For Cc1ccc(S(=O)(=O)N2CCN=C2c2ccccc2)cc1C the results were Ecoli growth 0.738, Beta2AR agonist 7.8, ALR inh -0.9, UCH37 inh 1.7 and HNF4A DNA FP -3.2.
`COc1cccc(NC(=O)CC(=O)c2ccc([N+](=O)[O-])cc2)c1` gave Ecoli growth 0.683, Beta2AR agonist 8.5, ALR inh -6.2, UCH37 inh 2.0, Ecoli rRNA inh 1.5, FGF22 binding inactive, HNF4A DNA FP 1.1, Ecoli rRNA inh OD600 8.0 and Ecoli rRNA inh RFP -3.0.
For COc1ccccc1OCc1nc2ccccc2n1C the results were Ecoli growth 0.67, Beta2AR agonist -9.1, ALR inh 0.0, UCH37 inh 2.9, Ecoli rRNA inh -0.3, FGF22 binding inactive, HNF4A DNA FP -1.6, Ecoli rRNA inh OD600 10.2 and Ecoli rRNA inh RFP 5.5.
CN1C(=S)SC(N2OC3C(=O)N(c4ccccc4)C(=O)C3C2c2ccccc2)C1(C)C (stereo unspecified) was read as Ecoli growth 0.704, ALR inh -7.8, UCH37 inh -1.0, Ecoli rRNA inh 18.3, FGF22 binding inactive, Ecoli rRNA inh OD600 10.1 and Ecoli rRNA inh RFP 7.6.
`Cc1nn(C)c(C(=O)NNC(=O)Nc2cccc(C(F)(F)F)c2)c1Cl` gave Ecoli growth 0.647, Beta2AR agonist 4.5, ALR inh 16.1, UCH37 inh 3.7, Ecoli rRNA inh -0.6, FGF22 binding inactive, HNF4A DNA FP -2.2, Ecoli rRNA inh OD600 -1.4 and Ecoli rRNA inh RFP 2.7.
`Cc1ccc(NC(=S)N2CCN(C(=O)C3CCCO3)CC2)c(C)c1` (stereo unspecified) gave Ecoli growth 0.656, Beta2AR agonist -1.4, UCH37 inh 2.7 and HNF4A DNA FP 0.4.
For CC(C)CC(=O)NC(C)C(c1cccs1)N1CCOCC1 (stereo unspecified) the results were Ecoli growth 0.687, Beta2AR agonist 7.5, ALR inh 2.4, UCH37 inh 3.7, Ecoli rRNA inh 5.2, FGF22 binding inactive, HNF4A DNA FP -1.2, Ecoli rRNA inh OD600 5.1 and Ecoli rRNA inh RFP -2.9.
CCOc1ccc(C(=O)Nc2cc(OC)ccc2OC)cc1 was read as Ecoli growth 0.606, Beta2AR agonist -6.8, ALR inh -14.5, UCH37 inh 3.1 and HNF4A DNA FP 3.0.
`COc1cc(NC(=O)C2CCN(c3cnccn3)CC2)cc(OC)c1` gave Ecoli growth 0.696, Beta2AR agonist 7.8, ALR inh -1.2, UCH37 inh -15.2, Ecoli rRNA inh -0.7, FGF22 binding inactive, HNF4A DNA FP 3.3, Ecoli rRNA inh OD600 2.3 and Ecoli rRNA inh RFP -1.4.
O=C(Cc1ccc(Cl)cc1Cl)NCC1(N2CCOCC2)CCCCC1 was read as Ecoli growth 0.719, Beta2AR agonist 4.7, UCH37 inh 3.7, Ecoli rRNA inh 7.9, FGF22 binding inactive, HNF4A DNA FP -0.2, Ecoli rRNA inh OD600 2.2 and Ecoli rRNA inh RFP -8.4.
Screening COc1ccc(Nc2nc(-c3cccnc3)cs2)c(OC)c1 returned Ecoli growth 0.63, Beta2AR agonist -5.9, ALR inh 55.6, UCH37 inh 2.8, Ecoli rRNA inh -15.6, FGF22 binding inactive, HNF4A DNA FP -0.2, Ecoli rRNA inh OD600 -14.3 and Ecoli rRNA inh RFP -12.8.
`CC(=O)/C(N=Nc1cc2c(cc1[N+](=O)[O-])OCCO2)=C(\C)O` gave Ecoli growth 0.733, Beta2AR agonist 16.9, ALR inh 2.5, UCH37 inh 3.5, Ecoli rRNA inh 5.0, HNF4A DNA FP 1.0, Ecoli rRNA inh OD600 12.6 and Ecoli rRNA inh RFP -0.2.
N#Cc1ccc(OCC(=O)N2CCN(S(=O)(=O)c3cccc(Cl)c3)CC2)cc1 was read as Ecoli growth 0.692, Beta2AR agonist 3.5, UCH37 inh 0.8, FGF22 binding inactive and HNF4A DNA FP -0.5.
`CCOc1ccc(C(=O)C2CCN(C(=O)c3ccccc3C(=O)O)CC2)cc1` gave Ecoli growth 0.725, Beta2AR agonist -4.0, ALR inh -11.9, UCH37 inh 0.3 and HNF4A DNA FP -1.3.
`CC(C)Cn1cc(-c2cccc3nccn23)cn1` gave Ecoli rRNA inh 9.5, FGF22 binding inactive, HNF4A DNA FP -2.2, Ecoli rRNA inh OD600 6.9 and Ecoli rRNA inh RFP -0.3.
Screening CC1CCN(C(=O)C(=O)c2cn(CC(=O)N3CCCCCC3)c3ccccc23)CC1 returned Ecoli growth 0.749, Beta2AR agonist 8.9, ALR inh -0.8, UCH37 inh 3.2, Ecoli rRNA inh 4.0, FGF22 binding inactive, HNF4A DNA FP -1.9, Ecoli rRNA inh OD600 -1.0 and Ecoli rRNA inh RFP 39.9.
`Cc1ccc2cc(C(c3nnnn3C3CCCC3)N(Cc3ccco3)Cc3cccs3)c(=O)[nH]c2c1` (stereo unspecified) gave Ecoli growth 0.768, Beta2AR agonist -4.3, ALR inh -33.5, UCH37 inh -8.1 and HNF4A DNA FP 3.2.
`CCN(CC)S(=O)(=O)c1ccc(Cl)c(NC(C)=O)c1` gave Ecoli growth 0.693, Beta2AR agonist -3.9, ALR inh -16.2, UCH37 inh 2.1, Ecoli rRNA inh 4.5, FGF22 binding inactive, HNF4A DNA FP 1.6, Ecoli rRNA inh OD600 9.6 and Ecoli rRNA inh RFP 2.7.
O=S1(=O)CSCS(=O)(=O)C1 was read as Ecoli growth 0.683, Beta2AR agonist -6.6, UCH37 inh 0.4, Ecoli rRNA inh 9.2, FGF22 binding inactive, HNF4A DNA FP -2.5, Ecoli rRNA inh OD600 12.9 and Ecoli rRNA inh RFP -10.4.
CCC(Sc1nncn1C)C(=O)Nc1nnc(-c2ccc(Cl)cc2)s1 (stereo unspecified) was read as Ecoli growth 0.751, Beta2AR agonist 4.2, ALR inh 57.5, UCH37 inh 5.2, Ecoli rRNA inh -9.6, FGF22 binding inactive, HNF4A DNA FP 0.3, Ecoli rRNA inh OD600 -24.3 and Ecoli rRNA inh RFP -4.4.
